High-throughput results: PubChem BioAssay, National Center for Advancing Translational Sciences (NCATS)
Marburg entry inh: Marburg virus entry inhibition; Marburg virus pseudotyped entry inhibition, cell reporter; control for the full effect not named in the record; about a third of the inactives were read at about 46 µM; Potency, µM (titrated, usually from 37.8 µM), inactives show at the highest dose activity change, negative = inhibition, usual class: inhibitors; hit rate 1.8% among 300,000; active = well fitted inhibition curve with a large enough effect; inconclusive = small, poorly fitted or top-dose-only effect, or effect the other way; inactive = flat fitted curve, though single readings scatter; tested in HEK293 cells; about a fifth of its hits are not listed in these tables; further: on the % scale 0 is the no-effect control and ±100 the full control effect; luciferase read-out
Cruzain noTriton: cruzain (T. cruzi) inhibition without detergent; Potency, µM, inactives show max response, negative = inhibition, usual class: inhibitors; purified cruzain, Z-FR-AMC fluorescence, no detergent; hit rate 2.3% among 200,000; AID 1476;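 further: plate controls were enzyme without inhibitor for no effect and buffer without enzyme for full effect; nearly all actives have a fitted effect of over 40% in size; top concentration of the series not given in the record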
Target sequence (P25779 123-467 limits assumed): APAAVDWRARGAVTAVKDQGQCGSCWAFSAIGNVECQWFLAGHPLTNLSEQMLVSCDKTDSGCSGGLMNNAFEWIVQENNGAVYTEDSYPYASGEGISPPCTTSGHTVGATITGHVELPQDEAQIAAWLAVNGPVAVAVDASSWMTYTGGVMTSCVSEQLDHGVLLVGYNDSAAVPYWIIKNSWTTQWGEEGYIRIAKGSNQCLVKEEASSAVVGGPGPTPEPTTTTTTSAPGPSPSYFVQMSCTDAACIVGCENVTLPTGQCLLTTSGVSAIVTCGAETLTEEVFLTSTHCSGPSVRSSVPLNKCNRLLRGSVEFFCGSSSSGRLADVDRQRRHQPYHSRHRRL
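Purified cruzain at 1.5 nM, pre-incubated 15 min with compound at room temperature in 100 mM sodium acetate pH 5.5, 5 mM DTT, 0.00005% Triton X-100. Reaction started with 2 uM Z-FR-AMC; AMC fluorescence increase over 60 s gives rate.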
Lassa entry inh: blocks Lassa virus binding to or entry into cells; hit rate 1.2% among 300,000; Lassa virus pseudotype entry inhibition, cell reporter; control for the full effect not named in the record; Potency, µM (titrated, usually from 37.9 µM), for the others: at the top dose activity change, negative = inhibition, most hits filed as inhibitors; active means well fitted inhibition curve with a large enough effect; inconclusive means small, poorly fitted or top-dose-only effect, or effect the other way; inactive means flat fitted curve, though single readings scatter; tested in HEK293 cells; further: on the % scale 0 is the no-effect control and ±100 the full control effect; nearly all actives have a fitted effect of over 50% in size; luciferase read-out
StopGo reporter: FMDV 2A StopGo reporter, luciferase signal. human cells with a luciferase reporter of 2A StopGo recoding; control for the full effect not named in the record. hit rate 1.2% among 410,000. Potency, µM (series often up to 57.9 µM), for the others: top-dose signal change, negative = less light; active = well fitted falling curve with a large enough effect; inconclusive = small, poorly fitted or top-dose-only effect; inactive = no such curve, though single readings can be large or run the other way; tested in HEK293T cells; further: on the % scale 0 is the no-effect control and ±100 the full control effect; nearly all actives have a fitted effect of over 45% in size; luciferase light after 4 h
RE007 growth inh: less growth of the S. pombe RE007 Vpr strain | S. pombe RE007 Vpr strain, BacTiter-Glo ATP luminescence, 24 h; control for the full effect not named in the record | Potency, µM (doses to about 92.2 µM), for the others: at the top dose activity change, negative = less growth | hit rate 0.21% among 360,000 | AID 651644; active = well fitted falling curve with a large enough effect; inconclusive = small, poorly fitted or top-dose-only effect; inactive = no such curve, though single readings can be large or run the other way;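 further: on the % scale 0 is the no-effect control and ±100 the full control effect; nearly all actives have a fitted effect of over 50% in size; the assay follows cell death caused by Vpr and the record does not say whether a fall means rescue or toxicity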
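Fission yeast RE007 carrying one integrated HIV-1 vpr copy, seeded at OD 0.01 in PMG+AL medium with 23 nL pinned compound. Grown 24 h at 30 degrees; viability read by BacTiter-Glo luminescence after 5 min.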
SARS PLP yeast: SARS-CoV PLP inhibition in yeast. S. cerevisiae expressing SARS-CoV PLpro, growth rescue; control for the full effect not named in the record. Potency, µM (highest dose often 32.9 µM), inactives show at the highest dose activity, positive = growth rescue. hit rate 0.19% among 330,000; active means well fitted rising curve with a large enough effect; inconclusive means small, poorly fitted or top-dose-only effect; inactive means no such curve, though single readings can be large or run the other way; further: 0% is about no effect; nearly all actives have a fitted effect of over 55% in size; growth read by luminescence after 48 h
Cruzain inh Det: blocks cruzain activity in presence of Triton detergent; AID 1478; purified cruzain, Z-FR-AMC fluorescence, 0.01% Triton; hit rate 0.43% among 200,000; P25779; Potency, µM, for inactives: max response, negative = inhibition, hits mostly inhibitors;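 further: plate controls were neutral wells for no effect and buffer without enzyme for full effect; nearly all actives have a fitted effect of over 40% in size; top concentration of the series not given in the record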
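Detergent-containing run (0.01% Triton X-100) in acetate buffer pH 5.5 with 5 mM DTT: enzyme at 1.5 nM final, 15 min compound preincubation at room temperature, then 2 uM Z-FR-AMC substrate. Activity taken as 60 s fluorescence increase at 360/450 nm.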
NS1 function inh: influenza NS1 inhibition. Potency, µM (doses to about 46.1 µM), without a hit: at the top dose activity, positive = more growth. S. cerevisiae slowed by influenza A NS1, growth recovery by OD600. hit rate 0.4% among 270,000; active means well fitted rising curve with a large enough effect; inconclusive means small, poorly fitted or top-dose-only effect; inactive means no such curve, though single readings can be large or run the other way; further: nearly all actives have a fitted effect of over 50% in size
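Read-out: OD600 growth recovery of NS1-expressing budding yeast. Cells grown overnight at 30C in -URA glucose medium, washed, resuspended and diluted 1:100 in 2% galactose assay medium, pH 6.0. Same strain lacking NS1 served as positive control.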
* hit, by the source's call; u = inconclusive; x = not tested or not shown; [ ] = dose if it differs, or a comment. Unless noted, the call rests on the fitted dose curve; in most records, active means well fitted curve in the direction sought with a large enough effect; inconclusive means small, poorly fitted or top-dose-only effect, or another doubt; inactive means no such curve, though single readings can be large; an effect the other way counts as inactive or inconclusive. Potency means the concentration at half of the fitted maximal effect.

SMILES	Marburg entry inh	Cruzain noTriton	Lassa entry inh	StopGo reporter	RE007 growth inh	SARS PLP yeast	Cruzain inh Det	NS1 function inh
S=C1N(c2ccccc2)C(c2cccc3ccccc23)N2CCCN12 (stereo not given)	-4%[46.1 µM]	9%	23%	-15%	10%	u	-0.8%	9%
Cc1cccc(C)c1NC(=O)COC(=O)C1Cc2ccccc2CN1C(=O)c1ccccc1 (stereo not given)	15%	-8%	-17%	-9%	0%	2%	-2.1%	-9%
Cc1cccn2c(=O)c3cc(C(=O)NCc4cccnc4)c(=N)n(C(C)C)c3nc12	u	u	-27%	-11%	0%	8%	u	-1%
COC(=O)c1ccc(COC(=O)c2ccc(CO)cc2)o1	u	-2%	u	1%	-2%	2%	3.7%	12%
CC(NC(=O)c1ccc2c(c1)N(Cc1cccc(F)c1)C(=O)c1ccccc1S2)c1ccccc1 (stereo not given)	x	u	2%[46.1 µM]	-3%	x	x	-3.6%	x
COCCCNC(=S)Nc1ccc(OC(F)F)cc1C	x	x	x	33%[activator]	-3%	1%	x	4%
COCCNC(=S)N/N=C/c1ccc([N+](=O)[O-])cc1	-5%[46.1 µM]	x	-4%	-2%	-4%	1%	x	0%
COc1cccc(/C=N/NC(=O)c2[nH]c(C)c(C(=O)N/N=C/c3cccc(OC)c3)c2C)c1	u	15%	-4%	u	-19%	0%	-12%	0%
O=C(c1ccc(N2CCN(C(=O)c3cccc(F)c3)CC2)cc1)c1cccc(F)c1	x	x	x	-28%	-8%	-1%	x	-37%
CCCCc1cc(=O)oc2cc(O)ccc12	-1%[46.1 µM]	x	-11%	-11%	8%	1%	x	-5%
CC(=O)Nc1ccc(-c2sc(Nc3ccccc3)n[n+]2C)cc1	x	x	x	-10%	-8%	-4%	x	-13%
CC(=O)Nc1ccc(S(=O)(=O)Nc2ccc3[nH]c(=O)[nH]c3c2)cc1	4%[46.1 µM]	x	2%	-9%	-7%	8%	x	7%
COc1ccc([N+](=O)[O-])cc1NC(=S)NC(NC(=O)Cc1ccc(OC)c(OC)c1)C(Cl)(Cl)Cl (stereo not given)	u	-26%	u	-15%	-15%	0%	0.4%	8%
COC(=O)c1c(NC(=O)CC2SC(N)=NC2=O)sc2c1CCCC2 (stereo not given)	3%	-22%	-11%	x	0%	7%	-5.8%	18%
O=[N+]([O-])c1cc(Br)c(Nc2ccccc2)c([N+](=O)[O-])c1	x	x	x	u	-9%	-13%	x	-64%
C=CCn1c(SCC(=O)c2c(N)n(CCC)c(=O)n(C)c2=O)nc2sc(CC)cc2c1=O	0%	5%	-4%	u	-4%	-4%	4.4%	0%
Cc1ccccc1-c1nnn(CC(=O)Nc2cccc(S(N)(=O)=O)c2)n1	-1%	x	14%	9%	0%	-2%	x	-3%
C[C@@H](NC(=O)[C@@H]1Cc2ccccc2CN1)C(=O)NCC1CCCO1 (stereo not given in full)	x	x	x	-19%	6%	-4%	x	-12%
CC(C)(C)C(=O)Nc1ccccc1C(=O)OCC(=O)c1ccc2c(c1)OCCO2	u	-2%	u	u	17%	11%	-8.0%	-13%
Cc1nn(C(C)C(=O)NCCCc2ccccc2)c(=O)c2cc3occc3n12 (stereo not given)	-7%	-1%	-2%	-2%	-1%	7%	-1.8%	-12%
CCc1ccc2c(c1)C1(C(=O)N2)N2CCCC2C(C(=O)c2ccc3ccccc3c2)C12C(=O)Nc1ccccc12 (stereo not given)	u	-14%	u	-29%	3%	-15%	-5.5%	-1%
CCN(CC)c1ccc(N2C(=O)/C(=C/c3cccs3)SC2=S)cc1	25%	u	-8%	-4%	-13%	15%	5.4%	-8%
O=C1c2ccccc2OC2(C=Cc3ccccc3O2)N1Cc1ccccc1 (stereo not given)	u	25µM*	-12%	-16%	5%	-8%	3.0%	2%
O=C(COc1ccc(Br)cc1)N1CCN(C2CCCC2)CC1	u	15%	11%	-21%	0%	-3%	2.2%	-6%
Cc1ccc(S(=O)(=O)N[C@H](C(=O)NCC2CCC(C(=O)O)CC2)C(C)C)cc1 (stereo not given in full)	23%	x	14%	-2%	7%	2%	x	1%
CCOC(=O)c1c(C)n(C)c2ccc(OC(=O)c3ccc(N4C(=O)CCC4=O)cc3)cc12	5%	u	1%	-20%	7%	-10%	-2.6%	17%
CC1=C(C(=O)N2CCCC(N3CCN(c4ccccc4C)CC3)C2)OCCO1 (stereo not given)	x	x	x	-23%	18%	17%	x	2.5µM*
CCc1ccc(NC(=O)C2CC(=O)N=C(N)S2)cc1 (stereo not given)	15%[46.1 µM]	-4%	2%	-12%	-7%	0%	3.4%	-1%
COc1cccc(NC(=O)[C@H](C)NC(=O)N2CCn3c2nc2ccccc23)c1	x	x	x	-4%	-7%	0%	x	-13%
CCOC(=O)c1ccc(NC(=O)NCc2ccccc2)cc1	-19%[46.1 µM]	x	u	15%	2%	-1%	x	-3%
CC(=NCCCO)c1c(O)[nH]c(=O)[nH]c1=O	u	x	6%[46.1 µM]	4%	-2%	1%	x	-2%
N#CC1=C(N)C(C#N)(C#N)[C@H](c2ccncc2)[C@H]2CC3(CC=C12)OCCO3	-9%	3%	3%	-2%	4%	4%	-0.2%	12%
COc1cccc(CNC(=O)c2ccncc2)c1	-27%[46.1 µM]	x	12%[46.1 µM]	-13%	18%	-1%	x	9%
COc1cccc(C(=O)O/N=C(\N)c2ccc(C)cc2)c1	x	x	x	36%[activator]	-27%	-8%	x	-34%
COc1ccc(N2CCN(Cc3nc4c(c(=O)n(C)c(=O)n4C)n3Cc3ccccc3C)CC2)cc1	4%	x	x	-6%	-5%	x	x	-1%
O=C1c2ccccc2C(Nc2ccc(Cl)cn2)N1c1ccccn1 (stereo not given)	x	0%	x	-19%	-1%	23%	-7.4%	-42%
COc1ccc(CN2CCCCC2C)cc1C (stereo not given)	-1%	10%	-16%	1%	3%	-1%	1.9%	7%
O=C(CSc1nc2ncc(Cl)cc2[nH]1)Nc1ccccc1-c1ccccc1	x	x	x	u	-2%	-1%	x	6%
Cc1ccc2nc(Cl)c3cc(C(=O)NCCCN(C)Cc4ccccc4)sc3c2c1	u	-4%	u	-7%	x	x	-1.6%	x
CC(=O)Nc1ccc2nc(SCCOc3ccc(C)cc3)sc2c1	u	-2%	-1%[46.1 µM]	-13%	x	x	-2.2%	x
Cc1ccc(Cn2nc(C)c(NC(=O)CSc3nc4c(c(C(F)(F)F)n3)CCc3ccccc3-4)c2C)cc1	25%	-11%	3%	u	x	2%	-5.0%	1%
CN(C)CCCNC(NC(=O)c1cccs1)C(Cl)(Cl)Cl (stereo not given)	1%	9%	15%	-19%	-2%	-2%	2.1%	-2%
Cn1cccc1/C=C1\SC(=S)N(NC(=O)c2ccccc2O)C1=O	2%[46.1 µM]	x	4%	-2%	-4%	0%	x	-7%
O=C(NC1CC1)C1=C[C@H](c2c[nH]c3ccccc23)C[C@H](OCCCCO)O1	x	x	x	17%	-12%	-1%	x	-5%
O=C(COC(=O)c1cc([N+](=O)[O-])ccc1NCc1ccccc1)NCc1ccccc1Cl	u	-84%	-6%	-8%	5%	17%	-4.5%	19%
O=C(NCCS(=O)(=O)NCc1ccco1)c1ccccc1	12%	x	7%[46.1 µM]	5%	-2%	7%	x	x
COC(=O)CN(Cc1ccco1)S(=O)(=O)c1ccccc1	u	-6%	-8%	x	-2%	3%	1.8%	9%
CCOC(=O)N1CCC(NC(=O)c2ccc3c(c2)sc2nc(-c4ccccc4)cn23)CC1	11µM*	u	u	u	-7%	-8%	6.6%	u
O=c1[nH]c2sc3c(c2c2nncn12)CCCC3	-20%	-1%	9%	14%	1%	-20%	-2.3%	4%
CC1CC(C)CN(CCCNC(=O)c2ccc3c(c2)NC(=O)C(N2CCCCC2)S3)C1 (stereo not given)	u	-2%	u	u	-7%	0%	3.0%	6%
COCc1cc(C)nc2sc3c(=O)oc(C)nc3c12	2%	3%	18%	-14%	8%	8%	3.6%	-3%
O=S(=O)(c1cc(Cl)ccc1Cl)n1cccn1	-20%[46.1 µM]	x	14%	11%	-7%	0%	x	6%
CC(=O)Nc1ccc(NC(=O)CCCc2c[nH]c3ccccc23)cc1	u	x	7%[46.1 µM]	-8%	-13%	0%	x	7%
CCOc1ccc(C2c3c(oc4ccccc4c3=O)C(=O)N2CCCN2CCOCC2)cc1OCC (stereo not given)	x	-1%	x	2%	8%	-3%	0.6%	12%
COc1ccc(C(=O)OCn2nnc3ccccc3c2=O)cc1OC	u	4%	9%	4%	31%	4%	1.5%	-5%
COc1ccc(CCNC(=O)Cc2c(C)c3c(cc(C)c4c(C)c(C)oc43)oc2=O)cc1OC	6%[46.1 µM]	5%	9%[46.1 µM]	-16%	x	x	2.7%	x
CC1CCCCC12NC(=O)N(CC(=O)Nc1ccccc1F)C2=O (stereo not given)	-14%	x	1%	-12%	7%	2%	x	x
COC(=O)C1CCN(c2cc(=O)n(-c3ccc(OC)cc3)c(=O)[nH]2)CC1	x	-3%	x	-19%	9%	1%	5.3%	5%
CCC1(c2ccc(OC)cc2)NC(=O)N(CC(=O)N2CCc3ccccc32)C1=O (stereo not given)	26%	x	-18%	-11%	-8%	-5%	x	x
O=C(NCC(=O)N1CCN(c2ccc([N+](=O)[O-])cc2)CC1)c1ccco1	-24%[46.1 µM]	x	0%[46.1 µM]	-21%	-7%	1%	x	x

(listing goes on)
SMILES	Marburg entry inh	Cruzain noTriton	Lassa entry inh	StopGo reporter	RE007 growth inh	SARS PLP yeast	Cruzain inh Det	NS1 function inh
CCOc1ccc(CN(C)C(=O)CNC(=O)c2ccccc2)cc1	-21%[46.1 µM]	x	0%[46.1 µM]	13%	3%	0%	x	2%
COc1cc(C(=O)OCCCN(C)C)cc(OC)c1OC	6%[46.1 µM]	x	-9%	-2%	-4%	1%	x	u
Cc1csc(NS(=O)(=O)c2ccc(Cl)cc2)n1	x	x	x	70%[activator]	-7%	1%	x	14%
Cc1cc(NC(=O)c2ccc([N+](=O)[O-])cc2)no1	-3%	x	u	29%	4%	4%	x	35%

Hits appear at their usual frequency; 4.5% or so of the library scored in one or more.
